# VACV Venus inh: qHTS for Stage-Specific Inhibitors of Vaccinia Orthopoxvirus: Venus Reporter Primary qHTS; Vaccinia virus Venus reporter expression, fluorescence; Potency, µM (series often up to 36.5 µM), for the others: top-dose activity change, negative = inhibition, most hits filed as inhibitors; 330,000 tested, 0.46% active; AID 720580, 2013; active means well fitted inhibition curve with a large enough effect; inconclusive means small, poorly fitted or top-dose-only effect; inactive means no such curve, though single readings can be large or run the other way; tested in A549 cells; also: nearly all actives have a fitted effect of over 30% in size; inactives centre near -10
# Vaccinia mCherry: qHTS for Stage-Specific Inhibitors of Vaccinia Orthopoxvirus: mCherry Reporter Primary qHTS; Potency, µM (titrated, usually from 36.5 µM), for the others: at the top dose activity change, negative = inhibition, hits mostly inhibitors; 310,000 tested, 0.63% active; Vaccinia virus mCherry reporter infection, fluorescence; about a quarter of the inactives have no number; active = well fitted inhibition curve with a large enough effect; inconclusive = small, poorly fitted or top-dose-only effect; inactive = no such curve, though single readings can be large or run the other way; tested in A549 cells; also: nearly all actives have a fitted effect of over 35% in size; inactives centre near -10
# Active calls of the source: *; i = inactive; ? = inconclusive; . = not tested or not shown; & = joins results of further samples; [ ] = dose if it differs, or a comment. % is scaled to controls: 0 for no effect and ±100 for the full control effect; potency is read from the fitted curve at half-maximal effect. No enrichment for hits. Share with any hit: about 0.87%.
# Start of the data: the first 13 records (preview)
SMILES,VACV Venus inh,Vaccinia mCherry
O=C(NCC1Cc2cccc(-c3ncccn3)c2O1)c1cccc(-c2ccccc2F)c1 (stereo unspecified),33%[activator],25%
Cc1cc(C)cc(NC(=O)Cn2nnc(C(=O)NCc3ccco3)c2N)c1,-11%&1%,-4%
COc1cc(C(=O)NCCNC(=O)c2ccco2)cc(OC)c1OC,-27%,?
CCN(CC)C(=O)CSc1nnc(-c2ccccc2)c(-c2ccccc2)n1,-8%,-3%
NC1=NC[C@H](Cc2ccc(O)cc2)N1CC1CCCCC1,-6%,-5%
Cc1cc(NC(=O)C(C)SCC(=O)OCc2c(Cl)cccc2Cl)no1 (stereo unspecified),-1%,i
COc1ccc(N2CCN(C(=O)COC(=O)c3ccc(C)o3)CC2)cc1,-10%,-18%
C/C(=N\N=C(N)N)c1ccc(Cl)cc1Cl,-25%,-8%
O=S(=O)(NC1CCCCC1)c1ccc(S(=O)(=O)N2CCN3CCCC3C2)cc1 (stereo unspecified),-19%,-21%
COc1ccc(CN(C(=O)c2snc(C(N)=O)c2N)C(C(=O)NC2CCCC2)c2cc(OC)ccc2OC)cc1 (stereo unspecified),-2%,-7%
Cc1nc(N)sc1C(=O)N/N=C/c1ccc([N+](=O)[O-])cc1,-10%[7.34 µM],-21%[7.34 µM]
Cc1ccc(C(=O)N/C(=C/c2ccc(Cl)cc2)C(=O)N2CCOCC2)cc1,-15%,-17%
Cc1ccc(CNc2nc(NCc3ccccc3)nc3ccsc23)c(C)c1,?,?

# The list itself, from the first entry:
SMILES,VACV Venus inh,Vaccinia mCherry
O=C(NCC1Cc2cccc(-c3ncccn3)c2O1)c1cccc(-c2ccccc2F)c1 (stereo unspecified),33%[activator],25%
Cc1cc(C)cc(NC(=O)Cn2nnc(C(=O)NCc3ccco3)c2N)c1,-11%&1%,-4%
COc1cc(C(=O)NCCNC(=O)c2ccco2)cc(OC)c1OC,-27%,?
CCN(CC)C(=O)CSc1nnc(-c2ccccc2)c(-c2ccccc2)n1,-8%,-3%
NC1=NC[C@H](Cc2ccc(O)cc2)N1CC1CCCCC1,-6%,-5%
Cc1cc(NC(=O)C(C)SCC(=O)OCc2c(Cl)cccc2Cl)no1 (stereo unspecified),-1%,i
COc1ccc(N2CCN(C(=O)COC(=O)c3ccc(C)o3)CC2)cc1,-10%,-18%
C/C(=N\N=C(N)N)c1ccc(Cl)cc1Cl,-25%,-8%
O=S(=O)(NC1CCCCC1)c1ccc(S(=O)(=O)N2CCN3CCCC3C2)cc1 (stereo unspecified),-19%,-21%
COc1ccc(CN(C(=O)c2snc(C(N)=O)c2N)C(C(=O)NC2CCCC2)c2cc(OC)ccc2OC)cc1 (stereo unspecified),-2%,-7%
Cc1nc(N)sc1C(=O)N/N=C/c1ccc([N+](=O)[O-])cc1,-10%[7.34 µM],-21%[7.34 µM]
Cc1ccc(C(=O)N/C(=C/c2ccc(Cl)cc2)C(=O)N2CCOCC2)cc1,-15%,-17%
Cc1ccc(CNc2nc(NCc3ccccc3)nc3ccsc23)c(C)c1,?,?
CCC(=O)NCCc1cc2ccc(C)c(C)c2[nH]c1=O,-15%,-13%
CN(CC(=O)NCc1ccccc1)S(=O)(=O)c1ccc2[nH]c3c(c2c1)CCCC3,-7%,-16%
Cc1ccc2cc(CN(Cc3ccco3)C(=S)NCC3CCCO3)c(=O)[nH]c2c1C (stereo unspecified),-16%,-4%
CC(NC(=O)c1ccccc1)c1nc2ccccc2n1Cc1ccc(Cl)cc1 (stereo unspecified),-2%,-7%
Cc1nc2c(=O)[nH]n(C)c2nc1C,-7%,-14%
COc1ccccc1NC(=O)C1=C(C)Nc2nc(SCc3ccccc3C)nn2C1CC(C)C (stereo unspecified),?,?
CCOC(=O)/C=C/c1ccc2oc3ccccc3c(=O)c2c1,-14%&-11%,-8%
O=C(CSc1nnc(CNC(=O)c2ccccc2)o1)NCc1ccc2c(c1)OCO2,-10%,-13%
Cc1sc2ncnc(N3CCC(C)CC3)c2c1C,-16%,-22%
Cc1ccc(S(=O)(=O)NCc2nc(-c3cccc(C)c3)no2)cc1,-6%,-11%
CCOC(=O)c1c(C)oc2nc(C)nc(NCCc3ccc(OCC)c(OCC)c3)c12,-18%,i
CCOc1ccc(-c2cccc(NS(=O)(=O)c3c(C)cc(C)cc3C)c2)nn1,-12%,-4%
COC(=O)C1=C(c2ccccc2OCc2ccccc2)C[C@@H]2CC[C@H]1N2C(=O)NCCCOC(C)C,-12%,i
CCCOc1ccc(CNC(=O)C2CCCN(c3nc4c(C)cc(C)cc4s3)C2)cc1 (stereo unspecified),-21%,-20%
CCCCN1CC(=O)N2[C@H]3c4cc(Br)ccc4OC[C@@H]3[C@H](C(=O)OCC)[C@]2(C)C1=O,-2%,i
CC(C)C[C@H]1CNC(=S)N1CC1CCCN1C[C@H](Cc1ccccc1)N1C[C@H](Cc2ccc(O)cc2)N(CC2CCCCCC2)C1=S (stereo partly specified),?,?
Fc1ccc(-c2nnc(CN3CCC(c4nc5ccccc5s4)CC3)o2)cc1,-8%,-11%
O=C(c1ccc2ccccc2c1)C1CCCN(C(=O)c2cccnc2)C1 (stereo unspecified),-4%,-11%
CCCCC1=NN(C(=O)c2cocc2C)C(O)(C(F)(F)F)C1 (stereo unspecified),-5%,-8%
O=C(OCc1ccccn1)c1ccc(COc2ccccc2Cl)o1,-1%,-6%
CC(=O)Cn1cnc2c(cnn2-c2ccc(F)cc2)c1=O,-8%,i
COc1ccc(N=C2SC(C(=O)N3CCN(c4ccccc4)CC3)CC(=O)N2C)cc1 (stereo unspecified),-9%,-12%
Brc1ccc(C2=Nc3cccc4cccc(c34)N2)o1,-5%,-5%
CCc1nc2ccc(C(=O)Nc3cccc(OCC(=O)N(C)C)c3)cn2c1N(C)Cc1ccc(OC)cc1,-27%,i
CCOC(=O)C1=CCN(S(=O)(=O)c2ccccc2[N+](=O)[O-])C1c1ccc(C)cc1 (stereo unspecified),-7%,17%
CCOC(=O)c1cc2c(=O)n3ccccc3nc2n(CCCOC)c1=NC(=O)C(C)(C)Oc1ccc(Cl)cc1,?,?
CN(c1ccc(C(=O)N2CCN(Cc3ccccc3)CC2)cc1)S(=O)(=O)c1ccc(Cl)cc1,-21%,-5%
Cc1cc(C[n+]2ncsc2N)c2ncccc2c1,9%,-14%
Cc1ccc(NC(=O)Cn2ncn3c(cc4ccccc43)c2=O)c(C)c1,-16%,-16%
N#Cc1ccccc1OCC(=O)OCCCOC(=O)COc1ccccc1C#N,2%,-12%
Cc1cccc(C)c1Cn1c(C)c(C(=O)NCc2cccc(Cl)c2)sc1=O,-3%,-2%
CCNC(=O)N(C)C[C@H]1N[C@@](C)(C(=O)OC)[C@H]2C(=O)N(Cc3ccccc3)C(=O)[C@@H]12,0%,i
COc1cc(C2C3=C(CCCC3=O)Nc3[nH]n(-c4ccccc4)c(=O)c32)cc(OC)c1OC (stereo unspecified),-2%,-13%
CC(=O)OC/C=C(C)/C=C/C=C(C)/C=C/C1=C(C)CCCC1(C)C,-17%&-5%,-9%&-13%
CCNc1ccc(C(=O)OCC)cc1NC(=O)c1cccc(S(=O)(=O)N(C)c2ccccc2)c1,-28%,-13%
CCOC(=O)c1ccc(NC(=O)CSc2nc3c(cc2C#N)N2CCC3CC2)cc1,-12%,-14%
CCCS(=O)(=O)NC(=O)C1(C)CCN(C(=O)COCc2ccccc2)C1 (stereo unspecified),9%,10%
CCCCCOC(=O)c1ccc(Nc2nc(C(=O)OCC)nc3ccccc23)cc1,-3%,-3%
CCOC(=O)c1ccc(NC(=O)CCn2ccc(C)n2)cc1,-2%,-1%
Cn1c(=O)c(=O)n(C)c2cc(N3CCOCC3)c(NS(=O)(=O)c3ccc(Br)cc3)cc21,-9%,-10%
Cc1ccc2cc(CN(C(=O)C3CCCO3)C3CCCCC3)c(=O)[nH]c2c1 (stereo unspecified),-12%,.
O=c1[nH]c2ccc(Cl)cc2c(-c2ccccc2)c1N1CCOCC1,?,?
COc1cccc(C(=O)NNc2nc(C)cc(C)n2)c1,-8%,0%
C#CCOc1ccc(/C=C2/C(=O)N(c3cccc(C(=O)O)c3)N=C2C)cc1OC,-4%,i
O=C(CCC(=O)N1CCN(S(=O)(=O)c2ccc(Cl)cc2)CC1)Nc1cccc(Br)c1,-8%,-16%
Cc1ccc2c(CC(=O)O)coc2c1C,0%,-13%
CC12C(=O)N(c3ccccc3)C(=O)C1C(c1ccccc1)N1CCCN12 (stereo unspecified),-9%,-11%

# Taken from above:
# VACV Venus inh with CCCCCOC(=O)c1ccc(Nc2nc(C(=O)OCC)nc3ccccc23)cc1 is entered as -3%
# VACV Venus inh with C#CCOc1ccc(/C=C2/C(=O)N(c3cccc(C(=O)O)c3)N=C2C)cc1OC is entered as -4%

# New compounds follow
SMILES,VACV Venus inh,Vaccinia mCherry
COc1ccc2c(c1)CC(C(=O)Nc1ccc(Br)c(C)c1)CO2 (stereo unspecified),-25%,-15%
COc1ccc(Cl)cc1C(=O)NNC(=O)C1COc2ccccc2O1 (stereo unspecified),-5%,-6%
C=CCNC(=O)COc1ccc(N(C)S(=O)(=O)c2ccc(NC(C)=O)cc2)cc1,-9%,i
COC(=O)CSc1nc2sc3c(c2c(=O)n1-c1ccccc1)C(C)CCC3 (stereo unspecified),-4%,-12%
CCOC(=O)c1ccccc1NC(=O)COC(=O)CSC(C)C(=O)Nc1cc(C)on1 (stereo unspecified),-5%,-10%
OCCOC1CCCc2oc(-c3ccccc3)c(C#CC3(O)CCCCC3)c21 (stereo unspecified),-14%,i
Cc1ccc2nc(SCC(=O)Nc3ccc(Cl)cc3)nc(=O)n2c1,-19%,-15%
Cc1ccc(C)n1/N=C1/NC(=O)CS1,34%[activator],25%
O=C(NCCN1CCOCC1)/C(=C\c1ccc(F)cc1)NC(=O)c1ccccc1,-4%,i
CCCC1(c2ccccc2)NC(=O)N(CC(=O)Nc2cc(C)on2)C1=O (stereo unspecified),-3%,i
C[C@@H]1CN([C@H](C)CO)C(=O)CCCn2nncc2CO[C@@H]1CN(C)C(=O)Nc1ccc2c(c1)OCO2,-13%,-19%
CCC(C(=O)Nc1ccc(C(C)=O)cc1)n1c(C)c2cnn(-c3ccccc3)c(=O)c2c1C (stereo unspecified),7%,-3%
COc1cccc(CNC(=O)CSc2ncc(S(=O)(=O)c3ccc(C)c(Cl)c3)c(=O)[nH]2)c1,10%,-5%
O=C(c1cc(-c2ccncc2)nc2ccccc12)N1CCN(c2ncccn2)CC1,-18%,-7%
CN(CC(=O)N1CCN(c2ccccn2)CC1)S(=O)(=O)c1ccc(Br)cc1,-7%,.
C[C@H](CO)N1C[C@H](C)[C@@H](CN(C)C(=O)NC2CCCCC2)Oc2ccc(NC(=O)Nc3ccc(C(F)(F)F)cc3)cc2C1=O,?,-18%
C[C@H]1CN([C@@H](C)CO)C(=O)CCCn2nncc2CO[C@H]1CN(C)S(=O)(=O)c1cccc(C#N)c1,-4%,-13%
Nc1cc(=O)[nH]c(SCc2ccccc2)n1,-5%,i
C[C@H](NC(=O)c1nc[nH]c1C(=O)N[C@@H](C)C(=O)OC(C)(C)C)C(=O)OC(C)(C)C,-22%,-24%
COCCOC(=O)c1[nH]c2c(c1C)C(=O)CC(c1cc(OC)c(OC)c(OC)c1)C2 (stereo unspecified),-21%,i
Cc1ccc(N2C(=O)N(CC(=O)NCc3ccccc3Cl)C(=O)C2C)cc1 (stereo unspecified),-21%,-15%
CCOc1ccccc1NC(=O)COn1nnc2ccccc21,-12%,.
CC(C)(C)NC(=O)c1cc(-c2ccc3c(c2)OCO3)nc2ccccc12,-22%,-6%
Cc1nn(-c2ccc(N3CCCCC3)nn2)c(C)c1CCC(=O)NCc1ccccc1,-4%,4%
CCN(CC)CCOC(=O)c1ccc(NC(=O)c2cn(-c3ccccc3)nc2-c2cccs2)cc1,-25%,-26%
COc1cc(CN(C(=O)COc2ccc(Cl)c(C)c2)c2ccccn2)cc(OC)c1OC,5%,-13%
O=C(NCCCc1ccncc1)C1CCC(=O)N(CCc2cccc(F)c2)C1 (stereo unspecified),-3%,i
CCN1CCSc2ccc(C(=O)NCc3ccc(F)cc3)cc21,-2%,-14%
Cc1ccc(S(=O)(=O)NC2CCCC2)cc1C,-5%,-6%
COCCNC(=O)c1sc2ncn(CC(=O)Nc3ccc(C)c(Cl)c3)c(=O)c2c1C,-16%,9%
Clc1ccc(-n2cnc3c(Cl)ncnc32)cc1Cl,-3%,i
Cc1ccccc1N1CCN(C(=S)c2ccccc2)CC1,-13%,i
Nc1nnnn1/N=C/c1ccccc1C(F)(F)F,-2%,-14%
COc1ccc(/C=C2\Oc3cc(OCC(=O)N4CCC[C@H]4C(=O)O)ccc3C2=O)cc1OC,-9%,11%
Oc1ccc(-c2nccc(-c3ccc(F)cc3)n2)cc1,-22%,-30%
Cc1ccc(S(=O)(=O)NC(=O)Nc2ccc(Cl)cn2)cc1,-4%,i
CCOCN(C(=O)CCl)c1c(C)cccc1CC,-8%&4%,-1%&6%
O=C(CSc1nc(=O)n(Cc2ccco2)c2c1CCC2)Nc1ccccc1C(F)(F)F,-21%,-10%
Cc1ccc(S(=O)(=O)Nc2ccc(C(=O)OCC(=O)N(CCC#N)c3ccccc3)cc2)cc1C,-7%,i
COc1cc(-c2nnc(NC(=O)c3ccco3)o2)cc(OC)c1OC,-17%,-13%
